Bioassay records (PubChem BioAssay)
Sfp inh = blocks B. subtilis Sfp PPTase activity; Potency, µM, for inactives: max response, negative = inhibition, usual class: inhibitors; Biochemical Sfp PPTase activity, qHTS; actives 3.5% (n = 310,000); active = well fitted inhibition curve with a large enough effect; inconclusive = small, poorly fitted or top-dose-only effect, or another doubt; inactive = no such curve, though single readings can be large or run the other way;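 note: the enzyme is Sfp with the accession as filed and its product quenches rhodamine fluorescence; potency is the fitted concentration of half-maximal effect; 0% = enzyme reaction without inhibitor and -100% = no enzyme wells; top concentration of the series not given in the record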
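With Hepes-Na pH 7.6 buffer containing 10 mM MgCl2, Sfp (15 nM) modified BHQ-2-YbbR (12.5 uM) using rhodamine-CoA (5 uM). Two reads 30 minutes apart at 525/598 nm yielded each well's rate.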
PINK1 expr mod = changes PINK1 expression; PINK1 immunofluorescence, high-content cytometry, 24 h; Potency, µM (doses to about 76.6 µM), without a hit: top-dose activation (PINK1 increase), actives largely listed as activators; actives 0.2% (n = 410,000); active = well fitted activation curve with a large enough effect; inconclusive = small, poorly fitted or top-dose-only effect; inactive = flat fitted curve, though single readings scatter; cell line not stated here;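 note: potency is the fitted concentration of half-maximal effect; % of control where 0% means no effect; nearly all actives have a fitted effect of over 65% in size; a mitochondrial uncoupler was the plate control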
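Fluorescence from anti-PINK1 antibody, together with nuclear and cell stains, was scanned on a laser-scanning cytometer. Before staining, stable-line cells were incubated 24 hours with compounds at 5 concentrations; primary antibody 12 h at 10 degrees C.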
ClpP mod = qHTS Assay for Activators of ClpP | Potency, µM (series often up to 57.5 µM), for the others: at the top dose activity change, negative = active | actives 1.9% (n = 340,000) | AID 651965, 2013 | purified B. subtilis ClpP, FRET peptide cleavage, 20 min; active = well fitted falling curve with a large enough effect; inconclusive = small, poorly fitted or top-dose-only effect; inactive = no such curve, though single readings can be large or run the other way; note: potency is the fitted concentration of half-maximal effect; the source files actives as falling curves though it sought activators and does not explain the sign; nearly all actives have a fitted effect of over 65% in size; many hits overshoot -100%
Target sequence (P80244 whole entry, looked up): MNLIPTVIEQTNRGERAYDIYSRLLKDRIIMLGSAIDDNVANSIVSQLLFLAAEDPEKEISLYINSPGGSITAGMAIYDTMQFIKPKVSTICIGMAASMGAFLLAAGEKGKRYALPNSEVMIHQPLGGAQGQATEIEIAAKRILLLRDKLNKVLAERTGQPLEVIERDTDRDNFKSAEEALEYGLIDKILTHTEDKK
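Buffer: 100 mM Tris/HCl pH8, 100 mM KCl, 0.05% low protease BSA, 2.5% glycerol, 0.01% Tween-20. ClpP 10 microg/mL final; 20 min RT; delta FRET normalized to ADEP and DMSO controls.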
TRPML1 ag = agonists of human TRPML1 channel. Q9GZU1. TRPML1-expressing cells, Ca2+ dye fluorescence, FDSS; host cell line not named in the record; reference of the full effect not given here. activation, % (no concentration beside the values). actives 0.12% (n = 410,000). AID 624414; in the data active = activation above about 50%; inconclusive = about 30% to 50%; inactive = below about 30%; note: 0% is about no effect; the text of the record puts the active cut at 80%
Target sequence (Q9GZU1 whole entry, looked up): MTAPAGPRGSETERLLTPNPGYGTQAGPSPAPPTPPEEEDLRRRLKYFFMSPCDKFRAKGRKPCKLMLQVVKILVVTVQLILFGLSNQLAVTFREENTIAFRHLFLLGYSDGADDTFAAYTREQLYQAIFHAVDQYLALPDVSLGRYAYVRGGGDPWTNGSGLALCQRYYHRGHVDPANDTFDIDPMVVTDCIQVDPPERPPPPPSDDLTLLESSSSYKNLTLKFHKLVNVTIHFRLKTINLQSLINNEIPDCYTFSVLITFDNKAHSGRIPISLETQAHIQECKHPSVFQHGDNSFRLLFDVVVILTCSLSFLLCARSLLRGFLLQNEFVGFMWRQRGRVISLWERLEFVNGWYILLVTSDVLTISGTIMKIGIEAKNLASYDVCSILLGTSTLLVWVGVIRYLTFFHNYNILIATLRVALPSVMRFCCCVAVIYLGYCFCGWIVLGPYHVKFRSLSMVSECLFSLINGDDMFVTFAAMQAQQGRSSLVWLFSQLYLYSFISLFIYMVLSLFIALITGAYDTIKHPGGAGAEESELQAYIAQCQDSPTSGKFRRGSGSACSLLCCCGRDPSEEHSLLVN
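Tet-induced TRPML1-DL cells, 1,500 per well, cultured overnight, were loaded with a no-wash Ca2+ dye for 45–90 min. Calcium fluorescence was recorded on the FDSS for 110 s after compound addition, before the EC80 agonist (4 uM 54-4) was added.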
Menin-MLL FL inh = displaces fluorescein MLL peptide from human menin; 290,000 tested, under 10 active; Fluorescence polarization, fluorescein-MLL peptide displacement from menin; FP activity change, % at 61.4 µM; AID 1766; inconclusive = falling polarisation curve, or a change in total fluorescence; inactive = total fluorescence flat and polarisation flat or rising; no compound was filed as active; the % refers to the polarisation; negative = inhibition;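 note: % of control where 0% means no effect; inhibitors lower the polarisation; unlabelled MLL peptide was the positive control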
TRPML1 inh = inhibitors of human TRPML1 channel; activity change, negative = inhibition, % (concentration not given with the values); AID 624415; actives 0.02% (n = 390,000); TRPML1-inducible cells, Ca2+ dye fluorescence, FDSS; stronger effect = lower value; inhibition of EC80 agonist-evoked calcium signal; in the data active means activity change below about -50%; inconclusive means about -30% to -50%; inactive means above about -30%;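 note: stimulus is agonist 54-4 at its EC80 concentration; % is set by controls: 0 for no effect and ±100 for the full control effect; compound concentration not given in the record; the text of the record puts the active cut at -80%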
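Tet-induced TRPML1-DL cells loaded with Ca8 no-wash calcium dye were read kinetically on FDSS. Compound addition was followed by EC80 agonist 54-4 (4 uM final); inhibition was read over 110 s.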
TRPV1 PAM = potentiators of human vanilloid receptor 1 (TRPV1); Q8NER1; potentiation, % at 8.33 µM; actives 0.02% (n = 320,000); TRPV1-expressing cells, Fluo-8 calcium influx, capsaicin EC20 potentiation; host cell line not named in the record; control for the full effect not named in the record; AID 540277; active means potentiation above 80%; inconclusive means 30% to 80%; inactive means below 30%; note: 0% is about no effect
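TRPV1-expressing cells were cultured overnight at 35.5C and loaded with Fluo-8 calcium dye for 40 to 90 min at room temperature. After a 10 s baseline, compound was added and calcium influx was read kinetically for 3 min (ex 480/em 520 nm).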
Active calls of the source: *; ? = inconclusive; . = not tested or not shown; & = joins results of further samples; [ ] = another dose, or the depositor's remark.

Values run as follows: Sfp inh, PINK1 expr mod, ClpP mod, TRPML1 ag, Menin-MLL FL inh, TRPML1 inh, TRPV1 PAM
(1) Oc1ccc(C[C@H]2CNC(=S)N2C[C@H]2CCCN2C[C@H](Cc2ccccc2)N2C[C@H](Cc3ccc(O)cc3)N(CC3CCCCCC3)C2=S)cc1
 : ., 12.3%, -1.2%, -0.3, ., 4.3, .
(2) Cc1nonc1NC(=O)CSc1nc(C2CCCCC2)nc2ccccc12
 : 9.1%, -2.6%, -0.6%, 1.5, 7.7, 18.1, -3.0
(3) COc1cc(Cl)ccc1OCc1cc(C(=O)N(C)Cc2nnc(C)o2)no1
 : 9.7%, 1.8%, -2.5%, 0.2, ., 10.0, -3.3
(4) Cc1ccc(NS(=O)(=O)c2ccc(-c3ccc(=O)[nH]n3)o2)cc1Cl
 : 11.5%, 1.9%, -0.8%, 1.5, -0.3, 11.0, -2.8
(5) CC1(C)CC(=O)C=C(Nc2ccc(C(=O)O)cc2)C1
 : 7.1%, -0.3%, 0.9%, -0.1, 0.3, -1.2, 20.3
(6) COCCNC(=S)N1CCC(NC(=O)Nc2ccc(C)cc2)CC1
 : -5.2%, -0.8%, -1.0%, 1.1, 1.0, -0.8, -5.3
(7) Cn1c(=O)c2c(nc(NCCc3ccccc3)n2Cc2ccc(Cl)cc2)n(C)c1=O
 : ., 23.3%, -1.0%, -0.2, ., -13.0, .
(8) O=C(c1cccc([N+](=O)[O-])c1)N1CCCC(C(=O)N2CCN(c3ccccc3)CC2)C1 (configuration not stated)
 : 8.1%, -2.0%, -4.9%, 1.8, -0.2, -2.6, 8.4
(9) CCc1nnc(NC(=O)C2CCCN2C(=O)Nc2ccc(Cl)cc2)s1 (configuration not stated)
 : 10.2%, 0.8%, ., 0.0, 0.6, 7.9, 2.1
(10) COc1cc(C(=O)NCCC2=CCCCC2)ccc1OCc1c(C)noc1C
 : ., 3.9%, -1.9%, 1.1, ., 4.5, -23.1
(11) O=C(O)CSc1c(Cl)c(=O)oc2ccc(Cl)cc12
 : ., -1.0%, -3.4%, -0.2, ., 2.8, .
(12) Cn1c(COc2ccc(Cl)cc2)nnc1SCC(=O)NC1CC1
 : ., -0.7%, -1.8%, -0.4, ., 18.1, -5.4
(13) O=C(NCCCCNC(=O)c1ccc(Cl)s1)c1ccc(Cl)s1
 : -1.4%, 14.0%, -0.5%, -0.3, 3.8, -2.7, -3.5
(14) O=C(OCC(=O)N1CCCc2ccccc21)c1ccc(F)c(S(=O)(=O)N2CCOCC2)c1
 : ., 2.7%, ., 4.4, ., -19.4, 29.6
(15) COc1ccccc1NS(=O)(=O)c1cc(NC(=O)c2ccc3c(c2)OCCO3)ccc1C
 : -2.0%, 0.5%, 1.5%, 2.0, 3.5, 2.0, 2.2
(16) CSc1nnc2c(n1)OC(C)N(C(=O)c1ccccc1)c1ccccc1-2 (configuration not stated)
 : 3.3%, -2.4%, -6.0%, 2.2, 6.2, 7.0, 5.5
(17) N#CC1(C#N)OC12CCS(=O)(=O)c1ccccc12 (configuration not stated)
 : ., 1.9%, ?, 0.5, ., -13.7, .
(18) Cc1ccc(-c2ccc(C(=O)NCc3ccc(Cl)cc3)o2)c2ccccc12
 : ?, 0.8%, 3.7%, 4.0, 5.0, -1.1, 14.2
(19) Nc1nc(SCC(=O)c2ccc(Cl)cc2)c2ncn(C3OC(CO)C(O)C3O)c2n1 (configuration not stated)
 : ., 0.3%, 1.1%, 0.7, ., 6.6, .
(20) Cc1ccc(S(=O)(=O)C2C(=O)N(C)C3(C)CC2c2ccccc2O3)cc1C (configuration not stated)
 : 16.5%, 2.0%, 1.7%, 1.7, 4.4, 14.3, -20.1
(21) Cc1oc(-c2ccc(Cl)cc2)nc1CS(=O)CC(=O)NC1CC1 (configuration not stated)
 : 3.9%, -0.1%, ?, -0.7, ., -10.7, -6.9
(22) CCOC(=O)c1sc2nc(C)nc(NCc3ccc(Cl)cc3)c2c1C
 : -12.7%, ?, -0.6%, 1.9, 1.3, 22.4, -6.8
(23) CCOc1ccc(C(=O)/C=C/c2cn(CC(O)CN3CCc4ccccc43)c3ccccc23)cc1 (configuration not stated)
 : ., -2.6%, -0.3%, 1.3, ., 4.0, .
(24) N#CC1(c2ccccc2)CCCN1C(=O)c1ccc(Br)cc1 (configuration not stated)
 : -5.3%, -3.1%[38.3 µM], 1.4%, 0.8, 2.7, 0.4, 0.0
(25) O=C(Nc1ccc(F)cc1)N1CCCN(c2nccc(C(F)(F)F)n2)CC1
 : 4.0%, -0.3%, 1.0%, 0.3, -1.8, 15.3, -14.5
(26) Cc1ccc(S(=O)(=O)N2Cc3ccccc3CC2C(=O)Nn2cnnc2)cc1 (configuration not stated)
 : -12.6%, 7.5%[38.3 µM], 1.0%, -0.3, -0.8, -9.8, ?
(27) Cc1cnc(NC(=O)CSc2nnc(-c3ccccc3)o2)s1
 : 0.5%, 2.5%, -1.1%, 1.3, -0.4, 20.5, 16.5
(28) COc1ccc(Nc2nc(-c3ccccc3F)nc3ccccc23)cc1OC
 : -11.8%, -1.8%&0.0%, -1.0%&-2.0%, 1.1&0.4, -3.5, 12.0&7.2, -10.8
(29) CC(C)(C)NC(=O)C(=O)NNC(=O)c1cccc(F)c1
 : ?, -2.6%, -2.1%, -1.0, 0.2, -9.8, -0.7
(30) c1ccc(COn2nnc3ccccc32)c(COn2nnc3ccccc32)c1
 : -15.9%, 1.3%[38.3 µM], -0.7%, 1.0, 5.0, 41.3, -18.1
(31) N#CCCN(CCC#N)S(=O)(=O)c1ccc(C(=O)Nc2nnc(C3=COCCO3)o2)cc1
 : -0.4%, -1.5%, -0.7%, -0.7, -2.6, 39.4, 21.3
(32) COc1ccc(CNC(=O)C(C)n2nc(C)c3sc4ccccc4c3c2=O)cc1OC (configuration not stated)
 : ., 0.5%, -1.5%, 2.8, ., 8.3, .
(33) Cc1cccc(Nc2nc(N)nc(CN3CCC(C(N)=O)CC3)n2)c1C
 : 3.5%, 1.3%, -19.0%, -0.1, -0.9, -1.4, -4.3
(34) COc1ccc(C(=O)CN2CCN(c3ccc(F)cc3)CC2)cc1
 : -4.9%, -1.9%, -2.2%, -1.2, 0.6, 10.0, -4.5
(35) O=C(NCCCn1ccnc1)/C(=C\c1cccs1)NC(=O)c1cccs1
 : -6.7%, -1.7%, ., -0.4, -3.9, -12.7, 0.4
(36) COc1ccc(Nc2cc(C(=O)NCCCN3CCN(C)CC3)c3ccccc3n2)cc1
 : -20.4%, 0.9%, -0.9%, -0.5, 6.3, -2.8, 20.2
(37) COC(=O)c1oc2ccccc2c1NC(=O)CN1CCCC1
 : 13.6%, ., -0.5%, -0.2, 2.9, 0.2, 6.4
(38) c1ccc2[nH]c(CSc3nccs3)nc2c1
 : 9.1%, 0.3%, 0.3%, -0.3, -1.7, -14.9, 16.5
(39) O=C(NCC(=O)N(c1cccc(F)c1)C(C(=O)NC1CCCC1)c1ccncc1)c1ccco1 (configuration not stated)
 : 16.2%, 0.0%, 1.9%, -1.1, -0.6, -10.2, 3.9
(40) Cn1nnnc1SCCNCc1ccc(Cl)c(Cl)c1
 : ., 2.4%, -0.3%, -1.2, ., -5.7, .
(41) O=[N+]([O-])c1cccc(/C=C/c2ccncc2)c1
 : 7.0%, -0.6%, ., -0.6, 0.8, 13.8, -7.1
(42) CCOP(=O)(OCC)C(NC(=O)/C=C/c1ccc(OC)cc1)c1ccccc1 (configuration not stated)
 : 15.7%, -0.7%, -9.3%, 1.2, -5.0, -18.3, 3.8
(43) Cc1ccc(CSc2nc3c(c(=O)[nH]2)C(c2cccc(F)c2F)CC(=O)N3)cc1 (configuration not stated)
 : ., 1.7%, 0.4%, 0.7, ., -4.3, .
(44) Cc1cc(Nc2ccccc2)nc(N2CCOCC2)n1
 : 2.8%, -2.0%, -1.2%, 1.9, 0.8, -12.8, 3.6
(45) CC(C)COc1ccc(/C(=N/O)c2ccccc2)cc1
 : 3.0%, 17.8%[38.3 µM], -2.5%, 1.0, 0.1, -2.9, -12.1
(46) Cc1cc(C(=O)COC(=O)C2=NNC(=O)CC2)c(C)n1-c1cccc(C(F)(F)F)c1
 : -2.3%, 9.9%[38.3 µM], -0.3%, 3.5, -0.3, -18.4, -8.0
(47) CC(=O)Nc1ccc(S(=O)(=O)N2CCC(C(=O)Nc3nccs3)CC2)cc1
 : 15.4%, 3.7%, -0.6%, 0.5, ., 14.2, 17.0
(48) COc1ccccc1C(=O)NCCC(=O)N(C)CC(=O)Nc1ccc(C)cc1
 : ., 2.1%, -0.2%, 0.5, ., -2.6, -0.5
(49) CCOC(=O)c1c(C)c(-c2ccccc2)n(CC(=O)Nc2cc(C)cc(C)c2)c1C
 : ., 17.6%, -4.9%, -0.3, ., -0.6, .
(50) O=C(COC(=O)c1cc(-c2ccccn2)nc2ccccc12)Nc1ncc(C(F)(F)F)cc1Cl
 : -7.6%, 19.6%, -2.0%, -0.1, -0.4, 7.0, -6.5
(51) CCN(C(=O)COC(=O)c1cccc(S(=O)(=O)N(CC)CC)c1)C1CCS(=O)(=O)C1 (configuration not stated)
 : 3.8%, -0.8%, -2.9%, 0.6, ., 5.0, -1.7
(52) COc1ccc(S(=O)(=O)Nc2cccc(F)c2)cc1C
 : 8.1%, 5.0%, -1.0%, 1.3, -3.2, -6.6, -6.0
(53) CC(C)c1ccccc1NC(=O)CSc1nnc(COc2ccccc2)o1
 : ., 1.9%, 2.0%, -0.2, ., 26.1, .
(54) COc1ccc(C=O)cc1CSc1nnc(COc2cccc3cccnc23)o1
 : 0.3%, 5.5%, -1.5%, 0.0, 0.7, 15.1, 4.8
(55) COc1ccc(CN2CC[C@H]3C=CC[C@@H](C(=O)N4CCOCC4)[C@H]3C2=O)cc1OC
 : ., 1.5%, 2.0%&2.1%, 0.1&-0.5, ., 24.5, .
(56) O=C1C=C(Nc2ccc(Cl)cc2)CC(c2ccco2)C1 (configuration not stated)
 : 2.6%, 5.8%, 2.5%, 0.2, -0.3, 17.1, -12.7
(57) COc1ccc2nc(CNC(=O)C3CCC(=O)N(CCc4ccccc4)C3)[nH]c2c1 (configuration not stated)
 : 4.5%, -0.1%, -7.7%, 0.2, -2.3, -5.7, -2.3
(58) O=C(Nc1ccnn1C1CCN(Cc2ccc(F)cc2)CC1)C1CC1
 : 16.6%, 2.6%, -0.1%, -0.3, -3.1, 18.4, -9.1
(59) Cc1cccc(CNc2ccnc(-c3ccc(C(=O)N(C)C)cc3)n2)c1
 : -25.2%, 0.0%, ., ., 2.5, ., .

Rows are unselected; 4.4% or so of the library scored in one or more.
